Screening data from PubChem BioAssay.
RanGTP-Impb inh = disruptors of Ran-importin-beta complex formation – biochemical, FRET, CFP-Ran, YFP-importin-beta, homogeneous, primary screen | inhibition, % (concentration not given with the values) | actives 1.1% (n = 300,000) | AID 2216 | cell-free CFP-Ran/YFP-importin-beta FRET ratio;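 active = most replicates above 15%; inconclusive = exactly half above 15%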;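 also: 0% = DMSO wells and 100% = Ran loaded with GDP instead of GTP; wells of about 40 µL received 100 nL stock; the first replicate is given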
Ecoli growth = blocks Escherichia coli growth | OD600, 23 h; active compounds read low | OD600 absorbance (concentration not given with the values) | actives 0.21% (n = 330,000) | AID 1053175;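 active = OD600 absorbance below the run mean of sample wells minus 3.6 SD, in any replicate, cut at about 0.56 in these data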;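 also: stock transfer was 300 nL into about 60 µL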
HNF4A DNA FP = change in binding of human HNF4 alpha to DNA; P41235; HNF4a-FITC DNA binding, fluorescence polarization, 1 h; activity change, % at 10 µM; actives 0.3% (n = 360,000); AID 1224865; in the data active = activity change above about 30%, passing the limit was not always enough;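 also: controls were the assay level and a saturating level of protein; the project sought stronger binding though the title names inhibitors; some compounds called inactive have numbers as strong as hits; positive values seem to mean higher polarization but the record does not say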
Target sequence (P41235 whole entry, looked up): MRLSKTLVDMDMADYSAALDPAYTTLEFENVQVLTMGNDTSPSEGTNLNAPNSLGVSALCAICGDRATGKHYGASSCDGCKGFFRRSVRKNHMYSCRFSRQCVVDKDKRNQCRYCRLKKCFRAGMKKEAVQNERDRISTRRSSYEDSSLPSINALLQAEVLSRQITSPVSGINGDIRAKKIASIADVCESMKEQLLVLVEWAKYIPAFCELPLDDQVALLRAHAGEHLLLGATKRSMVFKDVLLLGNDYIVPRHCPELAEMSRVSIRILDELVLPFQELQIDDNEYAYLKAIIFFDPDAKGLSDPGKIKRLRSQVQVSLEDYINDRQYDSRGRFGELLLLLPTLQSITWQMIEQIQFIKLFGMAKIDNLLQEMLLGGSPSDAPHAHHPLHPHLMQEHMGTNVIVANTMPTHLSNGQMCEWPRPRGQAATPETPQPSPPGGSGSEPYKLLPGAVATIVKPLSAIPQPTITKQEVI
Vif A3G = inhibitors of Vif binding to APOBEC3G peptide, primary screen, biochemical, TR-FRET, GST-Vif 1-94, biotin-A3G peptide, dose response retest (AID 1117319) | TR-FRET GST-Vif / biotin-A3G peptide binding; higher % means a stronger effect; test concentration not given here; strong numbers were not always called active | one-dose inhibition, %; IC50 in µM for titrated hits | actives 0.57% (n = 260,000);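 active = above the screen mean plus three standard deviations and confirmed in dose response; inconclusive = results disagree or hit not tested in dose response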;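 also: Vif residues 1-94 fused to GST binding biotinylated APOBEC3G peptide 110-148; 0% = full assay without inhibitor and 100% = GST in place of GST-Vif; retest series ran down from 100 µM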
AF4-AF9 inh = blocks AF4 peptide binding to human AF9 | P42568 | AlphaScreen, biotin-AF4 peptide binding to FLAG-AF9 | inhibition, % at 10 µM | actives 0.47% (n = 350,000);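 active = every replicate reaching a set inhibition limit, whatever the replicate mean, cut at about 25% in these data; inconclusive = mean inhibition reaches that limit but some replicates miss it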;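 also: 0% = plate neutral control median and 100% = total signal loss; the record names both 10 and 1 µM as test concentration; the first replicate is given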
FGF22 binding = binders of recombinant human FGF22 by thermal shift; Q9HCT0; SYPRO orange fluorescence; percent of sucrose octasulfate shift, DMSO zero; calls only at 9.99 µM; actives 1.5% (n = 340,000);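 active = melting point raised past a set limit in the mean and every replicate; inconclusive = no clear call; three in four hits are not shown here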
Target sequence (Q9HCT0 whole entry, looked up): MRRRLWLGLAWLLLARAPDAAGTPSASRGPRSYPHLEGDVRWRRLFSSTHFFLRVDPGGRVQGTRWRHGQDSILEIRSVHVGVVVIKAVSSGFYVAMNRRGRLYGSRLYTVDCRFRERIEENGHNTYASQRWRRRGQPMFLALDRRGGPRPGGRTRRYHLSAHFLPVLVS
UCH37 inh = blocks the human deubiquitinase UCH37 | inhibition, % (no concentration beside the values) | actives 0.33% (n = 330,000) | Q9Y5K5 | purified proteasome/UCH37, Ub-AMC cleavage fluorescence;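 active = mean of two replicates above 20%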;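 also: 0% = compound-free wells with enzyme and 100% = wells lacking proteasome; stock transfer was 100 nL into about 20 µL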
Target sequence (Q9Y5K5 whole entry, looked up): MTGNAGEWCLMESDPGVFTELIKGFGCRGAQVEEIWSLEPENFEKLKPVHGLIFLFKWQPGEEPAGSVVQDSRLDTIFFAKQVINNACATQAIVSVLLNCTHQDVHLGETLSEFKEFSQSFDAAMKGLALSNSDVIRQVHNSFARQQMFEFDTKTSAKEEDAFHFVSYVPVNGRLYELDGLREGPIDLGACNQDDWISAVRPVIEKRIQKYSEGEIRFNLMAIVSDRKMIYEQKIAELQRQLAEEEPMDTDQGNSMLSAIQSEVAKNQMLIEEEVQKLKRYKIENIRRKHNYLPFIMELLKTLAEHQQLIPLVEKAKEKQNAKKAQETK
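Assay system: Proteasome-bound UCH37. Buffer or medium: pH 7.4 Tris-HCl (50 mM) with ovalbumin, ATP-MgCl2, DTT. Incubation: 30 min preincubation with enzyme, 25 min cleavage at room temperature. Measured by: fluorescence, ex 355 nm, em 460 nm. Read-out basis: percent inhibition. Control set: wells without proteasome as full block, compound-free enzyme plus substrate as uninhibited.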
* hit, by the source's call; i = inactive; ? = inconclusive; nt = no result given; & = joins results of further samples. Some of the compounds tested; the hit share may differ from the screen's.

RanGTP-Impb inh,Ecoli growth,HNF4A DNA FP,Vif A3G,AF4-AF9 inh,FGF22 binding,UCH37 inh,smiles
?,0.69,-2.6,1%,-5.1,i,7.1,O=C(COC(=O)CSc1ccc([N+](=O)[O-])cc1)NCc1cccs1
-8.4,0.7,3.3,nt,-3.8,i,1.6,CCCc1nc2c(s1)CCc1onc(-c3ccc(Br)cc3)c1-2
nt,nt,1.9,nt,-4.5,i,3.0,O=C(C[C@H]1C/C=C\CC[C@@H](Cc2ccc(F)cc2)C(=O)O[C@@H](c2ccccc2)CNC1=O)N[C@@H](CO)Cc1ccccc1
6.5,0.7,0.8,5%,7.4,i,1.3,COc1ccc(/C=C2/C(=O)N(c3c(F)c(F)c(F)c(F)c3F)N=C2C)cc1
-3.6,0.71,2.1,12%,nt,nt,-0.3,Cc1nnc(NC(=O)CCCOc2ccccc2)s1
4.5,0.71,0.8,0%,4.3,i,3.3,COC(CNC(=O)c1ccc2c(c1)nc(C)n2-c1cccc(C)c1)OC
-1.2,0.7,-0.6,nt,0.4,i,2.6,NC(=O)C1CCCN(CC(=O)N2CCN(c3ccccc3)CC2)C1 (stereo unspecified)
6.8,0.72,-0.2,14%,-7.8,i,2.4,CCOC(=O)N1CCN(C(=O)Nc2sc3nc4n(c(=O)c3c2C)CCC(C)CC4)CC1 (stereo unspecified)
1.2,nt,-2.6,nt,-0.4,i,nt,Cc1ccc(N2CC(C(=O)N/N=C/c3c(F)cccc3Cl)CC2=O)cc1 (stereo unspecified)
2.8,0.65,4.2,0%,0.3,i,1.2,O=C(Oc1ccccc1)c1ccc2c(c1)C(=O)N(Cc1ccncc1)C2=O
nt,0.7,1.9,nt,-13,i,0.3,COc1ccc(Cl)cc1NC(=O)CN(C)CC(=O)NCc1ccc(F)cc1
-0.1,0.71,0.7,2%,nt,nt,4.0,CC(Sc1nc(N2CCCCC2)c2c(c1C#N)CCCC2)C(=O)O (stereo unspecified)
nt,nt,-2.4,nt,0.0,i,nt,COc1ccccc1C(=O)N1CCN(C(=O)[C@H]2O[C@@H](n3ccc(N)nc3=O)[C@H](O)[C@@H]2O)CC1
-4.3,0.69,0.6,7%,nt,nt,-1.8,COc1ccc(C(=O)NCc2ccccc2OC)c(OC)c1
2.7,0.67,0.8,1%,2.0,i,4.5,CC(=O)c1ccc(N2CCN(C(=S)NCCCN(C)C)CC2)cc1
2.0,0.67,0.4,19%,nt,nt,5.7,COc1ccc(NCCNc2ccc(OC)cc2)cc1
0.7,0.64,0.6,nt,-11,i,7.7,c1ccc(COc2cccc(CNCc3cccs3)c2)cc1
3.1,0.68,-1.0,nt,17,i,1.4,CCN1CCCc2cc(CN(CCN3CCOCC3)C(=S)Nc3ccccc3OC)ccc21
3.1,0.71,-4.4,-1%,-3.3,i,3.7,O=C(NN1C(=O)c2ccccc2NC1c1ccoc1)c1ccc([N+](=O)[O-])cc1 (stereo unspecified)
-1.7,0.65,-2.0,-8%,nt,nt,0.8,O=C(Cc1cccc2ccccc12)Nc1ccccc1C(=O)O
3.8,0.69,-0.1,-7%,1.1,i,0.9,CCc1ccc(NC(=O)CCCN2C(=S)NC(C)(C)CC2C)cc1 (stereo unspecified)
-0.4,0.72,1.8,-3%,nt,nt,6.4,CCn1c(SCc2nc3ccccc3nc2C)nnc1-c1cccs1
0.1,0.67,5.8,-4%,0.8,i,5.9,CCCn1c(CCNC(=O)c2cccs2)nc2ccccc21
-0.4,0.64,0.1,nt,1.1,i,3.2,CC(C)=CC(=O)N1CC[C@@H](N2CCN(c3ccccc3F)CC2)[C@H](O)C1
nt,0.72,-1.1,1%,nt,nt,4.9,COCCn1c(SCc2ccc(C(=O)OC)o2)nc2ccccc2c1=O
nt,nt,1.2,nt,-0.4,i,nt,COC(=O)C1=CN(c2cccc(OCc3ccccc3)c2)C(N)=C(C#N)C1c1ccc(-c2ccccc2)cc1 (stereo unspecified)
nt,0.66,2.3,nt,-0.1,i,0.5,CC(C(=O)NC1CCCC1)N1CCN(S(=O)(=O)c2ccc(C(C)(C)C)cc2)CC1 (stereo unspecified)
nt,0.63,4.2,nt,-1.7,i,0.8,Cc1ccc(C)c(N2N=C(C(=O)Nc3cccnc3)CCC2=O)c1
2.2,nt,0.2,-1%,-1.2,i,nt,O=C(C[n+]1ccccc1)N/N=C/c1ccccc1F
3.3,0.67,-3.6,nt,nt,nt,3.2,CC(=O)c1cccc(NC(=S)NC(=O)c2ccccc2Cl)c1
-0.5,0.67,-1.5,10%&11%,nt,nt,2.3,CC(C)c1ccc(NS(=O)(=O)c2ccc3[nH]cc(C(=O)N4CCC(C(N)=O)CC4)c(=O)c3c2)cc1
6.2,0.72,-2.2,nt,-11,i,-6.7,COc1ccc(CCC(=O)Nc2cnc3ccccc3c2)cc1
?,0.73,3.6,nt,-8.9,i,3.1,COc1ccccc1C(=O)Nc1cc(C)c(OCC(=O)N2CCOCC2)c(C)c1
0.6,0.72,-1.6,-54%,2.9,i,-2.1,Cc1cccc(N(Cc2cc3ccccc3[nH]c2=O)S(=O)(=O)c2ccccc2)c1
-0.5,0.72,-1.9,-1%,nt,nt,2.4,CCOc1ccc(Nc2nc(N3CCCCC3)nc(N3CCCCC3)n2)cc1
nt,nt,4.8,nt,-13,i,nt,Cn1c(N)c(C(=O)CN2CCN(S(=O)(=O)c3ccccc3C#N)CC2)c(=O)n(C)c1=O
0.3,nt,-0.6,2%,0.3,i,nt,Cc1ccc(C(=O)C2CCN(S(=O)(=O)c3ccc(C(=O)O)cc3)CC2)cc1
0.0,0.74,-3.0,?,nt,nt,-64,O=C1c2ccccc2NC(c2ccccc2)N1Cc1ccco1 (stereo unspecified)
2.6,0.68,-5.5,-6%,0.5,i,1.4,O=C(Nc1ccc(Cl)c(Cl)c1)N1CCOCC1
0.9,0.72,nt,15%,nt,nt,3.0,COc1ccc2[nH]cc(C(O)CN3CCN(c4ccccc4)CC3)c2c1 (stereo unspecified)
3.8,0.68,-2.9,-1%&-8%,nt,nt,2.1,COc1ccc(N(CC(=O)N2c3ccccc3CC2C)S(=O)(=O)c2c(C)noc2C)cc1 (stereo unspecified)
?,0.71,5.8,-2%,3.6,i,9.6,O=C1C(=O)N2C(=C1C(=O)N1CCCCCC1)c1ccccc1CC21CCCC1
0.3,0.68,1.3,-9%,-3.9,i,5.4,Cc1cc(C)cc(N2C(=O)CN(Cc3ccccc3)C2=S)c1
-0.1,nt,3.6,0%,nt,nt,nt,O=C(CN1CCCCCC1)N/N=C/c1cccc(Cl)c1Cl
nt,nt,0.6,nt,-2.9,i,nt,CCOC(=O)Cn1cc(Cn2c3ccccc3c(=O)n2C(C)C)nn1
3.7,0.74,-2.0,2%,nt,nt,2.5,CCOC(=O)COc1ccc(Cl)cc1C1NC(=O)NC(C)=C1C(C)=O (stereo unspecified)
?,0.65,0.5,5%,4.9,i,3.6,COc1ccc(OC)c(S(=O)(=O)N2CCC(C(=O)NCCc3ccccc3)CC2)c1
2.1,0.64,6.6,-6%,-0.7,i,1.5,FC(F)(F)c1cccc(OCc2noc(-c3ccsc3)n2)c1
nt,0.69,1.4,3%,-1.3,i,11,CN(C)c1cccc(C(=O)NNC(=O)/C=C/c2cccs2)c1
nt,nt,2.7,nt,0.4,i,nt,COc1cc(Cn2c3ccc(NC(=O)CCc4ccccc4)cc3c(=O)n2C)ccc1F
1.5,nt,2.2,nt,0.0,i,nt,CC12CCC(C/C1=N\OC(=O)c1c(F)cccc1F)C2(C)C (stereo unspecified)
-4.9,0.64,0.1,5%,1.3,i,0.3,COc1ccnc(CSC(N)=Nc2ccccc2C(F)(F)F)c1
-2.7,0.73,0.6,-12%,nt,nt,4.1,O=C(Cn1c(=O)sc2ccccc21)OC(CCl)CCl
nt,nt,0.5,nt,10,i,nt,CN1CCN(c2ccc(CNC(=O)C3(C)Cc4c(-c5ccccc5)ccnc4O3)cc2)CC1 (stereo unspecified)
-5.9,0.71,-0.1,4%,nt,nt,5.4,Cc1ccc2c(c1)N(C(=O)CCC(=O)N1CCc3ccccc3C1)CCO2
2.3,0.71,-0.6,18%,nt,nt,2.5,CC(=O)NC1(C(F)(F)F)C(=O)NC(C)=C1C#N (stereo unspecified)
3.5,0.64,-1.2,8%,-1.2,nt,2.9,Cc1ccc(N2C(=O)N(CC(=O)Nc3ccc(C)c(C)c3)C(=O)C2C)cc1 (stereo unspecified)
0.3,0.74,-14,?,4.1,i,-4.2,O=C(CSc1nccc(=O)[nH]1)N1N=C2/C(=C/c3ccco3)CCCC2C1c1ccco1 (stereo unspecified)
0.7,0.66,1.1,-3%,0.4,i,-1.4,COC(=O)c1cc(NC(=O)CN2CCN(C(C)=O)CC2)cc(C(=O)OC)c1
0.3,nt,4.0,11%,nt,nt,nt,Cc1c(/C=N/n2cnnc2)c2ccccc2n1C

Continued.
RanGTP-Impb inh,Ecoli growth,HNF4A DNA FP,Vif A3G,AF4-AF9 inh,FGF22 binding,UCH37 inh,smiles
0.0,0.71,-0.8,2%,nt,nt,-3.4,O=C(NCCN1CCCC1)C1CC(=O)N(C2CCCCC2)C1 (stereo unspecified)
0.4,0.74,0.6,-34%,nt,nt,4.0,Cc1ccc(-c2csc3ncnc(SCC(=O)Nc4nnc(C)s4)c23)cc1
0.3,0.71,-2.8,-2%,nt,nt,1.2,O=C(NCc1ccc2c(c1)OCO2)C1CC(=O)N(c2ccc(F)cc2)C1 (stereo unspecified)
-1.8,0.74,-1.8,4%,nt,nt,3.5,Cn1c(=O)c2c(nc(CN3CCOCC3)n2CCCc2ccccc2)n(C)c1=O
0.1,0.72,5.5,nt,-0.4,i,-29,Cc1cc(=O)oc2c(C)c(OCC(=O)N3CCC(C(=O)O)CC3)ccc12

Arranged by SMILES length (falling): some entries from above.
RanGTP-Impb inh,Ecoli growth,HNF4A DNA FP,Vif A3G,AF4-AF9 inh,FGF22 binding,UCH37 inh,smiles
0.3,0.74,-14,?,4.1,i,-4.2,O=C(CSc1nccc(=O)[nH]1)N1N=C2/C(=C/c3ccco3)CCCC2C1c1ccco1 (stereo unspecified)
6.8,0.72,-0.2,14%,-7.8,i,2.4,CCOC(=O)N1CCN(C(=O)Nc2sc3nc4n(c(=O)c3c2C)CCC(C)CC4)CC1 (stereo unspecified)
0.9,0.72,nt,15%,nt,nt,3.0,COc1ccc2[nH]cc(C(O)CN3CCN(c4ccccc4)CC3)c2c1 (stereo unspecified)
-1.2,0.7,-0.6,nt,0.4,i,2.6,NC(=O)C1CCCN(CC(=O)N2CCN(c3ccccc3)CC2)C1 (stereo unspecified)
-4.9,0.64,0.1,5%,1.3,i,0.3,COc1ccnc(CSC(N)=Nc2ccccc2C(F)(F)F)c1
